Vaccinia inh: Vaccinia orthopox stage-specific inhibition; 0.01% of 89,000 active; AID 1053133; Vaccinia-infected cells, mCherry/Venus stage reporter fluorescence; hits give low values; some inactives read as strong as hits; activity change (mCherry), % (concentration not given with the values);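 active means mCherry past -33% and 40 or more points under the early reporter, replicates agreeing; inconclusive means past -33% without that gap or agreement; tested in A549 cells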;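 further: scaled between vehicle wells and reference inhibitor wells; 23 nL library stock went into each well; one replicate is shown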
Vaccinia inh Venus: second read-out of Vaccinia inh, no call of its own (marks repeat the call); activity change (Venus), %; measured here: Venus reporter, other viral stage;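 negative = less Venus signal; first of two replicates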
Starred values were filed as active, the others as inactive; ? = inconclusive; / = not tested or not shown; & = joins results of further samples. Some of the compounds tested; the hit share may differ from the screen's.

Values in the order: Vaccinia inh, Vaccinia inh Venus
COc1ccc(S(=O)(=O)N(C)C[C@@H]2Oc3ccc(NC(=O)Cn4cnnn4)cc3C(=O)N([C@H](C)CO)C[C@@H]2C)cc1
    9, -1
CO[C@H]1CN(C)C(=O)c2cc(NC(=O)C3CC3)ccc2OC[C@@H](C)N(C(=O)c2cnccn2)C[C@@H]1C
    5, 9
COc1ccc(NC(=O)Nc2ccc3c(c2)CC(=O)N([C@@H](C)CO)C[C@H](C)[C@@H](CN(C)C(=O)Nc2ccccc2)O3)cc1
    36, 19
C[C@H]1CN([C@@H](C)CO)C(=O)c2cc(C3=CCCC3)cnc2O[C@H]1CN(C)C(=O)c1ccc(F)cc1
    17, 0
COc1ccc(C#Cc2cnc3c(c2)C(=O)N([C@H](C)CO)C[C@H](C)[C@@H](CN(C)CC2CCCC2)O3)cc1
    24, 9
Cc1ccccc1S(=O)(=O)N1C[C@H](O)COC[C@H]2O[C@@H](CC(=O)NCc3ccccc3Cl)CC[C@@H]21
    -16, -3
C[C@@H]1CCCCO[C@H](CN(C)C(=O)Nc2ccccc2)[C@@H](C)CN([C@H](C)CO)C(=O)c2cc(NC(=O)Nc3ccccc3)ccc2O1
    ?, /
C[C@@H]1CN([C@@H](C)CO)C(=O)Cc2cc(NC(=O)C3CC3)ccc2O[C@H]1CN(C)S(=O)(=O)c1ccc(Cl)cc1
    -14, -8
CCC(=O)Nc1ccc2c(c1)OC[C@H](C)N(C(C)=O)C[C@@H](C)[C@H](OC)CN(C)C2=O
    -2, 6
O=C(C[C@H]1CC[C@@H](NC(=O)c2ccccc2)[C@@H](CO)O1)NCc1ccc(Oc2ccccc2)cc1
    -21, -17
CO[C@@H]1CN(C)C(=O)c2cc(NC(C)=O)ccc2OC[C@H](C)N(C(=O)C2CCC2)C[C@H]1C
    -1, 1
C[C@H]1CN([C@@H](C)CO)C(=O)Cc2cc(NC(=O)Nc3ccc4c(c3)OCO4)ccc2O[C@@H]1CN(C)S(=O)(=O)c1ccc(Cl)cc1
    -16, -7
C[C@@H]1CN([C@H](C)CO)C(=O)c2cc(N(C)C)ccc2O[C@@H]1CN(C)S(C)(=O)=O
    10, 7
COc1ccc(NC(=O)Nc2ccc3c(c2)CC(=O)N([C@H](C)CO)C[C@H](C)[C@@H](CN(C)S(C)(=O)=O)O3)cc1
    16, 4
C[C@@H]1CN([C@@H](C)CO)C(=O)Cc2cc(NS(=O)(=O)c3ccc(F)cc3)ccc2O[C@H]1CN(C)S(=O)(=O)c1ccccc1
    -1, 9
COCC(=O)N[C@@H]1CC[C@@H](CC(=O)NCc2ccccc2OC)O[C@H]1CO
    1, 14
C[C@@H]1CN([C@@H](C)CO)S(=O)(=O)c2ccc(-c3cccnc3)cc2O[C@@H]1CN(C)C(=O)C1CCCCC1
    6, 7
O=S(=O)(N[C@H]1CC[C@@H](CCn2cc(C3(O)CCCC3)nn2)O[C@@H]1CO)c1ccc(F)cc1
    -8, 0
COc1ccc(NC(=O)Nc2ccc3c(c2)C(=O)N([C@H](C)CO)C[C@H](C)[C@@H](CN(C)C(=O)NC(C)C)OCCCC[C@@H](C)O3)cc1
    14, -5
CC(C)NC(=O)Nc1cccc2c1O[C@H](CN(C)Cc1ccccc1)[C@@H](C)CN([C@@H](C)CO)C2=O
    11, 2
CNC[C@H]1OCCCC[C@@H](C)Oc2ccc(NC(=O)NC(C)C)cc2C(=O)N([C@@H](C)CO)C[C@H]1C
    25, 16
CC(C)COC(=O)N(C)C[C@H]1OCc2cnnn2CCCC(=O)N([C@H](C)CO)C[C@@H]1C
    -8&11, -3&10
CC(C)C#Cc1ccc2c(c1)O[C@H](CN(C)CC1CC1)[C@H](C)CN([C@@H](C)CO)S2(=O)=O
    -32, -28
COc1ccc(NC(=O)N(C)C[C@H]2OCCCC[C@@H](C)Oc3ccc(N(C)C)cc3C(=O)N([C@H](C)CO)C[C@@H]2C)cc1
    7&18, 4&10
C[C@@H]1CN([C@H](C)CO)C(=O)CCCn2cc(nn2)CO[C@H]1CN(C)C(=O)Nc1ccc2c(c1)OCO2
    -5&7, -6&7
C[C@H]1CN([C@@H](C)CO)C(=O)c2cccc(NC(=O)CCCCCC(=O)Nc3ccccc3N)c2O[C@H]1CN(C)Cc1ccc(Oc2ccccc2)cc1
    ?, /
C[C@@H]1CN([C@@H](C)CO)C(=O)Cc2cc(NS(=O)(=O)c3ccc(Cl)cc3)ccc2O[C@H]1CN(C)Cc1ccccc1
    ?, /
C[C@@H]1CN([C@@H](C)CO)S(=O)(=O)c2ccc(/C=C/c3ccccc3)cc2O[C@@H]1CN(C)C(=O)NC1CCCC1
    ?, /
CO[C@H]1CN(C)C(=O)c2cc(NC(=O)C3CC3)ccc2OC[C@H](C)N(Cc2cncnc2)C[C@H]1C
    7, 6
COC(=O)[C@H]1[C@H](CO)[C@H]2Cn3c(ccc(-c4cccnc4)c3=O)[C@@H]1N2S(=O)(=O)c1ccccc1F
    0, 4

Later entries:
canonical_smiles | Vaccinia inh | Vaccinia inh Venus
COCC(=O)Nc1ccc2c(c1)C(=O)N(C)C[C@@H](OC)[C@@H](C)CN(Cc1ccccc1OC)[C@H](C)CO2 | 3 | -1
C[C@H]1CCCCO[C@H](CN(C)C(=O)c2ccccc2)[C@@H](C)CN([C@@H](C)CO)C(=O)c2cc(NS(=O)(=O)c3ccc(F)cc3)ccc2O1 | -18 | -17
C[C@H](CO)N1C[C@H](C)[C@H](CN(C)CC2CC2)OCCCC[C@H](C)Oc2ccc(NC(=O)Nc3ccccc3)cc2C1=O | -14 | -13
Cc1noc(C)c1S(=O)(=O)Nc1ccc2c(c1)C(=O)N([C@@H](C)CO)C[C@@H](C)[C@@H](CN(C)Cc1ccncc1)O2 | 1 | 19
C[C@@H]1CN([C@H](C)CO)C(=O)Cc2cc(N(C)C)ccc2O[C@@H]1CN(C)Cc1ccc(Cl)c(Cl)c1 | ? | /
CO[C@H]1CN(C)C(=O)c2cc(NS(=O)(=O)c3ccccc3)ccc2OC[C@@H](C)N(Cc2nccs2)C[C@H]1C | -5 | -4
CNC(=O)C[C@@H]1CC[C@@H]2[C@@H](COc3ccc(NC(=O)c4ccccc4Cl)cc3C(=O)N2C)O1 | 4 | 5
C[C@@H]1CN([C@H](C)CO)C(=O)CCCn2cc(nn2)CO[C@@H]1CN(C)C(=O)Nc1ccc(N2CCCCC2)cc1 | 2 | 12
COc1ccc(S(=O)(=O)N(C)C[C@@H]2Oc3c(NC(=O)Nc4ccc5c(c4)OCO5)cccc3C(=O)N([C@@H](C)CO)C[C@H]2C)cc1 | 7 | 4
COc1ccc2c3c(n(C)c2c1)[C@@H](CO)N(C(=O)NC(C)C)CC31CCN(CC2CCCCC2)CC1 | -23 | -16
COc1ccccc1-c1ccc2c(c1)[C@H]1[C@H](CCN1Cc1ccccc1F)[C@@H](CO)N2 | ? | /
CN1C(=O)c2cc(NC(=O)c3ccccc3F)ccc2OC[C@@H]2O[C@@H](CC(=O)NCc3ccc4c(c3)OCO4)CC[C@H]21 | -10 | -6
C[C@@H]1CN([C@@H](C)CO)C(=O)c2cc(NC(=O)Nc3ccc(C(F)(F)F)cc3)ccc2O[C@@H]1CN(C)S(C)(=O)=O | -1 | 4
COc1ccc(S(=O)(=O)Nc2ccc3c(c2)CC(=O)N([C@H](C)CO)C[C@@H](C)[C@H](CN(C)C(=O)Nc2cccc4ccccc24)O3)cc1 | 21 | 20
COc1ccccc1NC(=O)N[C@H]1CC[C@@H](CC(=O)NCc2ccc(Cl)c(Cl)c2)O[C@@H]1CO | -9 | -3
CO[C@@H]1CN(C)C(=O)c2cc(NC(=O)c3ccno3)ccc2OC[C@H](C)N(S(C)(=O)=O)C[C@@H]1C | 29 | 13
CS(=O)(=O)N1[C@H](C#N)[C@@H](c2ccc(C#Cc3cccc(F)c3)cc2)[C@H]1CO | -27 | -22
C[C@@H]1CCCCO[C@@H](CN(C)C(=O)Cc2ccccc2)[C@H](C)CN([C@H](C)CO)C(=O)c2cc(NC(=O)c3ccccc3)ccc2O1 | ? | /
C[C@@H]1CN([C@H](C)CO)C(=O)Cc2cc(NC(=O)Nc3ccc(F)cc3)ccc2O[C@@H]1CN(C)C | 14 | 12
C[C@H](CO)N1C[C@H](C)[C@@H](CN(C)C(=O)CN(C)C)Oc2ncc(-c3ccc(F)cc3)cc2C1=O | 5 | 2
C[C@H]1CN([C@@H](C)CO)C(=O)c2cc(NC(=O)CCC(F)(F)F)ccc2O[C@@H]1CN(C)CC1CCCCC1 | 19 | 18
O=C(C[C@@H]1CC[C@H](NS(=O)(=O)c2ccccc2)[C@H](CO)O1)NCc1ccc(Cl)c(Cl)c1 | -13 | -12
CC(C)C#Cc1cnc2c(c1)C(=O)N([C@H](C)CO)C[C@H](C)[C@@H](CN(C)C(=O)Nc1cccc(F)c1)O2 | 8 | 7
C[C@@H]1CN([C@@H](C)CO)C(=O)c2cccc(NC(=O)c3ccc(-c4nccs4)cc3)c2O[C@@H]1CN(C)Cc1ccc(C(=O)Nc2ccccc2N)cc1 | -22 | -16
O=C(O)C[C@@H]1C[C@@H]2c3cc(NC(=O)Nc4ccc(C(F)(F)F)cc4)ccc3O[C@@H]2[C@H](CO)O1 | -5 | -2
C[C@H](CO)N1C[C@H](C)[C@@H](CN(C)C(=O)Nc2cccc3ccccc23)Oc2ccc(NS(C)(=O)=O)cc2C1=O | 23 | 12
O=C(NC1CCCC1)[C@@H]1[C@@H](CO)[C@@H]2Cn3c(ccc(-c4ccc(F)cc4)c3=O)[C@H]1N2Cc1cocn1 | 7 | 5
O=C(O)[C@H]1[C@H](CO)[C@H]2Cn3c(ccc(C4=CCCCC4)c3=O)[C@H]2N1Cc1ccc2c(c1)OCO2 | 0 | 0
COCC(=O)N(C)C[C@H]1Oc2cc(Br)ccc2S(=O)(=O)N([C@@H](C)CO)C[C@H]1C | 20 | 3
Cc1ccc(S(=O)(=O)Nc2cccc3c2O[C@H](CN(C)C(=O)Nc2ccc(C(F)(F)F)cc2)[C@H](C)CN([C@H](C)CO)C3=O)cc1 | ? | /
COc1ccccc1-c1cnc2c(c1)C(=O)N([C@@H](C)CO)C[C@@H](C)[C@H](CN(C)C(=O)CC1CC1)O2 | 1 | 2
CCCNC(=O)Nc1ccc2c(c1)C(=O)N(C)[C@H]1CC[C@H](CC(=O)OC)O[C@H]1CO2 | 2 | -2
CN(Cc1cncnc1)C[C@@H]1N[C@H](CO)[C@@H]1c1ccc(-c2ccc(C#N)cc2)cc1 | -2 | -2
COc1ccc2c3c(n(C)c2c1)[C@H](CO)N(C(=O)C1CCCC1)CC31CCN(C(=O)CN(C)C)CC1 | 9 | 0
Cc1ccc(S(=O)(=O)N[C@@H]2CC[C@@H](CCn3cc(C(C)C)nn3)O[C@H]2CO)cc1 | -1 | 3
C[C@@H](NC(=O)C[C@H]1CC[C@H](NC(=O)C2CCOCC2)[C@@H](CO)O1)c1ccccc1 | 11 | 10
C[C@H]1CCCCO[C@@H](CN(C)Cc2ccc3c(c2)OCO3)[C@@H](C)CN([C@@H](C)CO)C(=O)c2cc(NS(C)(=O)=O)ccc2O1 | -13 | -8
O=C(C[C@@H]1CC[C@@H]2[C@H](COC[C@@H](O)CN2Cc2nccs2)O1)NCc1ccc(Oc2ccccc2)cc1 | ? | /
COc1ccccc1NC(=O)N1CC(=O)N2[C@H](C1)[C@H](c1ccc(C#CC3CC3)cc1)[C@@H]2CO | 3 | 3
C[C@@H]1CN([C@@H](C)CO)C(=O)c2cc(NC(=O)Cc3ccccc3)ccc2O[C@@H](C)CCCCO[C@@H]1CN(C)C(=O)CCCN(C)C | 4 | 1

The last two records of the part above lead into the next:
canonical_smiles | Vaccinia inh | Vaccinia inh Venus
COc1ccccc1NC(=O)N1CC(=O)N2[C@H](C1)[C@H](c1ccc(C#CC3CC3)cc1)[C@@H]2CO | 3 | 3
C[C@@H]1CN([C@@H](C)CO)C(=O)c2cc(NC(=O)Cc3ccccc3)ccc2O[C@@H](C)CCCCO[C@@H]1CN(C)C(=O)CCCN(C)C | 4 | 1
O=C(c1ccccc1)N1C[C@@H]2[C@H](c3ccccc31)[C@H](CO)N2Cc1cocn1 | 12 | 12
COc1ccc(S(=O)(=O)N2CCCCN3[C@@H](CO)[C@H](c4ccc(C5=CCCC5)cc4)[C@@H]3C2)cc1 | -27 | -19
Cc1noc(C)c1S(=O)(=O)Nc1cccc2c1O[C@H](CN(C)Cc1ccccc1)[C@H](C)CN([C@@H](C)CO)C2=O | 1 | 3
CCCC#Cc1ccc2c(c1)O[C@H](CN(C)S(C)(=O)=O)[C@H](C)CN([C@@H](C)CO)S2(=O)=O | -13 | -18
COc1ccc2c3c([nH]c2c1)[C@@H](CO)N(C(=O)C1CCC1)CC31CN(Cc2nccs2)C1 | 6 | 4
C[C@@H]1CN([C@H](C)CO)S(=O)(=O)c2ccc(C#C[C@@H](C)O)cc2O[C@H]1CN(C)C(=O)c1ccccc1 | 20 | 12
C[C@@H]1CN([C@@H](C)CO)C(=O)Cc2cc(NC(=O)CCCCCC(=O)Nc3ccccc3N)ccc2O[C@@H]1CN(C)Cc1ccc(Cl)c(Cl)c1 | ? | /
COc1ccc(NC(=O)N[C@@H]2CC[C@H](CCNC(=O)Cc3ccncc3)O[C@@H]2CO)cc1 | 5 | -3

Arranged by length of the SMILES (high to low): some entries from above
canonical_smiles | Vaccinia inh | Vaccinia inh Venus
C[C@@H]1CCCCO[C@@H](CN(C)C(=O)Cc2ccccc2)[C@H](C)CN([C@H](C)CO)C(=O)c2cc(NC(=O)c3ccccc3)ccc2O1 | ? | /
COc1ccc(NC(=O)N(C)C[C@H]2OCCCC[C@@H](C)Oc3ccc(N(C)C)cc3C(=O)N([C@H](C)CO)C[C@@H]2C)cc1 | 7&18 | 4&10
O=C(NC1CCCC1)[C@@H]1[C@@H](CO)[C@@H]2Cn3c(ccc(-c4ccc(F)cc4)c3=O)[C@H]1N2Cc1cocn1 | 7 | 5
CO[C@H]1CN(C)C(=O)c2cc(NC(=O)C3CC3)ccc2OC[C@@H](C)N(C(=O)c2cnccn2)C[C@@H]1C | 5 | 9
COc1ccc2c3c([nH]c2c1)[C@@H](CO)N(C(=O)C1CCC1)CC31CN(Cc2nccs2)C1 | 6 | 4
O=C(c1ccccc1)N1C[C@@H]2[C@H](c3ccccc31)[C@H](CO)N2Cc1cocn1 | 12 | 12
